Bioassay records: PubChem BioAssay, Johns Hopkins Ion Channel Center
KCNQ2 inh = KCNQ2 channel blockers in CHO-K1 cells – cell-based, FluxOR thallium flux, B-score, primary screen (AID 2156); O88943; B-score at 10 µM; actives 1.1% (n = 310,000); 20 min; stronger effect = lower value; only compounds with negative scores are shown here; some inactives read as strong as hits;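 active means fluorescence ratio B-score at most minus 3 library SDs, with starting brightness B-score within 2 library SDs, cut at about -5.5 in these data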
Target sequence (O88943 whole entry, looked up): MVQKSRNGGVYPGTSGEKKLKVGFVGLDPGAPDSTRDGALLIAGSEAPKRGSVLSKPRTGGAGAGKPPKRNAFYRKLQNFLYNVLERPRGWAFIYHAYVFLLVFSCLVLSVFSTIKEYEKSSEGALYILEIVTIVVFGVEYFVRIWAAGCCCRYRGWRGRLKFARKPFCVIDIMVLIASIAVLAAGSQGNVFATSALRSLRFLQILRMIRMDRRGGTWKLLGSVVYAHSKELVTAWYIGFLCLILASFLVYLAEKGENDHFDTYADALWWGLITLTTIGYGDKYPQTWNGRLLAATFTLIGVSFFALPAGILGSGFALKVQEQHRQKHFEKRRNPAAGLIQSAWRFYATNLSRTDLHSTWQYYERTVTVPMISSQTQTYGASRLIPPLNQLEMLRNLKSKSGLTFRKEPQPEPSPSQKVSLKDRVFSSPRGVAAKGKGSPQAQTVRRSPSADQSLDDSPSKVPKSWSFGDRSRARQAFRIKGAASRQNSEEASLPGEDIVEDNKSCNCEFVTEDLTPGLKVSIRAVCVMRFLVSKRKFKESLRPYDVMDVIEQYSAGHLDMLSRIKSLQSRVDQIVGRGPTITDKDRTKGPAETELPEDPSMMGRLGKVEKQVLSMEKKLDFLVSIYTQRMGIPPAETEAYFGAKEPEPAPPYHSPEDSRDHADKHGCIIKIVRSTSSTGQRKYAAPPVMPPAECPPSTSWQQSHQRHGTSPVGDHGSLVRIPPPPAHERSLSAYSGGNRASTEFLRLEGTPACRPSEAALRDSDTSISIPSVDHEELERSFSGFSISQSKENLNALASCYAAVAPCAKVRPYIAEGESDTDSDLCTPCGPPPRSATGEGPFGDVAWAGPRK
KCNQ2 inh baseline = also measured in KCNQ2 inh; calls as there; B-score; measured here: initial fluorescence intensity artifact check;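 brightness before thallium and not channel activity; 0 = typical well and far values either way flag optical interference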
Starred values were filed as active, the others as inactive; i = inactive.

item	mol	KCNQ2 inh baseline	KCNQ2 inh
1	N#CC(Cc1cccc(CC(C#N)(c2ccccc2)c2ccccc2)c1)(c1ccccc1)c1ccccc1	-0.69	i
2	COc1ccc(CCNC(=O)CC2C(=O)NCCN2CC(C)(C)C)cc1 (stereo not given)	0.05	i
3	CCC(OC(=O)C(C)N1C(=O)C(=O)c2ccccc21)C(=O)Nc1ccccc1OC (stereo not given)	0.72	i
4	Cc1ccc2oc(C(=O)N3CCC(O)(c4cccc(C(F)(F)F)c4)CC3)c(C)c2c1	-1.7	i
5	CN(C)c1cc[n+](CC(=O)Nc2ccc(OC(F)F)cc2)cc1	0.36	i
6	O=C(CCN1C(=O)[C@@H]2Cc3ccccc3CN2C1=O)Nc1cccc(F)c1	-0.1	i
7	CCN(CC)C(=O)c1ccc(-c2ccccc2)cc1	0.04	i
8	CC(=O)Nc1cc2cc(NS(=O)(=O)c3ccc(C)cc3)ccc2oc1=O	-0.11	i
9	Cc1cc(C)cc(CC2CC(=O)N(c3ccc([N+](=O)[O-])cc3)C2=O)c1 (stereo not given)	0.39	i
10	O=C(NCC1CCCCC1)C12CN(Cc3ccccc3)CC1C(c1cccc([N+](=O)[O-])c1)=NO2 (stereo not given)	0.21	i
11	COc1cccc(NC(=S)N(Cc2ccc(C)cc2)Cc2ccccn2)c1	-0.78	i
12	CC(=N\Nc1ccccc1)/C(=N/O)C(=O)Nc1ccccc1	1.3*	-6*
13	Cc1cc(C)n2nc(C(=O)N3CCN(Cc4ccc5c(c4)OCO5)CC3)nc2n1	0.55	i
14	Cc1ccc(CNC(=O)C2CCCN2C(=O)Nc2ccc(F)cc2)cc1 (stereo not given)	-0.43	i
15	CCOC(=O)c1c(NC(=O)CCS(=O)(=O)c2ccccc2)sc2c1CCN(C(C)C)C2	1.1	i
16	Cc1ccc(C(=O)OCC(=O)N2CC(C)CC(C)C2)cc1S(=O)(=O)N1CCOCC1 (stereo not given)	-0.96	i
17	O=C(NCCN1C(=O)C2C3C=CC(C3)C2C1=O)Nc1cccnc1 (stereo not given)	-0.12	i
18	COc1ccc(-n2c(Cc3cccn3C)nnc2SCC(=O)Nc2cccc(Cl)c2)cc1	0.68	i
19	Cc1ccc(Cn2nnc3c(=O)[nH]c(C4CCN(S(=O)(=O)c5ccccc5F)CC4)nc32)cc1	-1.5	i
20	Cc1ccc(NC(=O)c2ccccc2NC(=O)Cc2ccccc2)cc1	-0.53	i
21	COc1ccc(-c2nn(CC(=O)N(C)C)c(=O)c3ccccc23)cc1	0.39	i
22	CCOC(=O)c1ccc(Oc2nc(NC)nc(Nc3ccccc3)n2)cc1	-1.9	i
23	CCN(CC(=O)Nc1ccc([N+](=O)[O-])cc1OC)CC(=O)NC(C)(C)C	1.1	i
24	CCOC(=O)c1c(NC(=O)COc2ccccc2C#N)sc2c1CC(C)(C)NC2(C)C	-0.89	i
25	Cn1c(=O)[nH]c(=O)c2c1nc(N1CCCCC1)n2CCOc1ccccc1	-4.2	i
26	Cc1ccc(N2CCN(S(=O)(=O)N3CCCCC3)CC2)c(C)c1	-1.5	i
27	COc1ccc(C2=NOC(C(=O)NCc3ccccn3)C2)cc1OC (stereo not given)	1.2	i
28	COc1cc(OC)c(/C=C2\SC(=O)N(CC(=O)Nc3ccccc3F)C2=O)c(OC)c1	-0.03	i
29	COc1ccc2nc(N3C(=O)CC(Cc4ccc(C)cc4)C3=O)sc2c1 (stereo not given)	2.8	i
30	Cc1ccc(N=Cc2sc(O)c3ccccc23)cc1	3	i
31	O=C(CN1C(=O)c2ccccc2C1=O)N1CCN(C2c3ccccc3-c3ccccc32)CC1	-0.11	i
32	OCC[C@@H]1C[C@H](O)[C@@H](O)[C@@]2(Cc3ccccc3CCO2)O1	-0.04	i
33	CCOc1ccc(C(=O)Oc2ccc(NC(C)=O)cc2)cc1	0.69	i
34	CCc1ccccc1NC(=O)c1cc(-c2ccc(F)cc2)on1	1.5	i
35	COc1ccccc1N1CCN(C(=O)c2c(C)noc2C)CC1	-1.8	i
36	CC1CCN(C(c2cc3cc4c(cc3[nH]c2=O)OCO4)c2nnnn2CC2CCCO2)CC1 (stereo not given)	-0.12	i
37	CCCc1cc(C(=O)N2CCC(n3nccc3NC(=O)c3ccc(OC)cc3)CC2)no1	2.1	i
38	O=C(COc1ccc(Cl)cc1)Nc1ccc2c(c1)C(=O)NC2=O	-0.78	i
39	c1csc(C2CCCN2c2nc3nonc3nc2NC2CC2)n1 (stereo not given)	-1.4	i
40	CCc1c(O)nc(SCC(=O)Nc2ccccc2C)n(-c2ccc(C)cc2)c1=O	-0.34	i
41	Cc1ccc(S(=O)(=O)N2CCc3ccccc3C2)cc1	-1.2	i
42	Cc1cc(C)cc(N(CC(=O)NCc2ccccc2Cl)S(=O)(=O)c2c(C)[nH]c(=O)[nH]c2=O)c1	2.8	i
43	N/C(=N\OC(=O)c1ccc(Cl)cc1)c1ccccn1	-0.02	i
44	CC(=O)Nc1ccc2nc(CN3CCN(Cc4ccc(F)cc4)C(CCO)C3)ccc2c1 (stereo not given)	0.63	i
45	O=C(NC1CCSc2ccccc21)c1ccc(F)cc1 (stereo not given)	0.61	i
46	CC1(C)CC(=O)C2=C(C1)N(Cc1ccc(F)cc1)C(=O)C2(NC(=O)c1cccnc1)C(F)(F)F (stereo not given)	0.69	i
47	Cc1cccc(C)c1NC(=O)C(c1ccc(Cl)cc1Cl)N1CCCCC1 (stereo not given)	-0.88	i
48	Cc1ccc(-c2nc3ncccn3c2Nc2ccccc2C)o1	0.23	i
49	Cc1cccc(NC(=O)CSc2nc3c([nH]c4ccccc43)c(=O)n2C)c1	4	i
50	CCOc1cc(NS(=O)(=O)c2ccc(OC)cc2)c(OCC)cc1NC(=O)c1ccco1	-0.28	i

4 entries from above, with each value named.
41: Cc1ccc(S(=O)(=O)N2CCc3ccccc3C2)cc1
- KCNQ2 inh baseline: -1.2
- KCNQ2 inh: i
42: Cc1cc(C)cc(N(CC(=O)NCc2ccccc2Cl)S(=O)(=O)c2c(C)[nH]c(=O)[nH]c2=O)c1
- KCNQ2 inh baseline: 2.8
- KCNQ2 inh: i
43: N/C(=N\OC(=O)c1ccc(Cl)cc1)c1ccccn1
- KCNQ2 inh baseline: -0.02
- KCNQ2 inh: i
44: CC(=O)Nc1ccc2nc(CN3CCN(Cc4ccc(F)cc4)C(CCO)C3)ccc2c1 (stereo not given)
- KCNQ2 inh baseline: 0.63
- KCNQ2 inh: i

Next part.
item	mol	KCNQ2 inh baseline	KCNQ2 inh
51	CCOc1cccc(-c2nnc3n2N=C(c2cc(OC)ccc2OC)CS3)c1	-0.01	i
52	CCC1CCCCN1CCCNC(=O)Cn1ncc2c([nH]c3ccc(C)cc32)c1=O (stereo not given)	0.01	i
53	C=CCc1cccc([C@@H]2[C@@H](C)CC[C@H]3C(=O)N4[C@@H](c5cc(OC)c(OC)c(OC)c5)c5[nH]c6ccccc6c5C[C@H]4C(=O)N23)c1	-0.17	i
54	CCc1ccc(-c2cc(C(=O)NCCCn3ccnc3)c3ccccc3n2)s1	3.3*	-8.2*
55	CCCCOc1ccc(C(=O)N/C(=C/C=C/c2ccccc2)C(=O)NC)cc1	1.6	i
56	O=C(c1nc(-c2ccccc2)n(-c2ccccc2)n1)N1CCN(S(=O)(=O)c2ccccc2)CC1	-1.5	i
57	COC(=O)C1=C(C)N(Cc2ccco2)C(=O)N[C@@H]1c1cccc(C(F)(F)F)c1	-0.47	i
58	COc1ccc(-c2nnc(SCC(=O)c3cccs3)o2)c(OC)c1	1.6	i
59	Cc1ccc2c(c1C)NC(=O)CC(c1ccccc1O)=N2	-0.14	i
60	COc1ccc(CN2CN(C3CCCC3)CSC2=S)cc1	0.59	i
61	COc1ccc(N2CCN(CC(=O)Nc3cc(C)cc(C)c3)CC2)cc1	-1.9	i
62	COc1ccc(NC(=O)CN2C(=O)/C(=C3\SC(=S)N(CCC(=O)O)C3=O)c3ccccc32)cc1	0.1	i
63	COc1cccc(-c2nc(CS(=O)(=O)CC(=O)N3CCOCC3)c(C)o2)c1	-0.14	i
64	O=[N+]([O-])c1cc([N+](=O)[O-])c2c(=Nc3ccccc3)n(-c3ccccc3)n(O)c2c1	-3.1*	-9.8*
65	Cc1nc2oc3ccccc3c(=O)c2cc1C(=O)O	-1.4	i
66	CCC(OCC(O)CN1CCN(CCN2C(=O)c3cccc4cccc(c34)C2=O)CC1)c1ccccc1 (stereo not given)	-1.3	i
67	O=C(NCc1ccccn1)C1CCN(Cc2cccc(OCc3ccccc3)c2)CC1	0.08	i
68	O=C(COc1ccccc1)NNC(=O)c1cc2ccccc2o1	1.2	i
69	COC(=O)c1cc(OC)c(OC)cc1NC(=S)N1CCN(c2ccccc2)CC1	-2.1	i
70	Cn1nc(-c2ccccc2)c(CO)c1Sc1ccccc1	1.4	i
71	Cc1ccccc1NS(=O)(=O)c1ccc(C(=O)NCC(C)(C)N2CCOCC2)cc1	-0.02	i
72	CN1/C(=C/C=C(/C#N)C(N)=O)C(C)(C)c2ccccc21	6.2	i
73	Cc1ccc(NCC(=O)N/N=C\c2ccc([N+](=O)[O-])o2)cc1	-0.96	i
74	C=CCNc1oc(-c2cccs2)nc1C#N	0.66	i
75	CC1=NN(/C(=N\c2nnc(C)s2)Nc2ccccc2)[C@H](c2cccc3ccccc23)S1	0.03	i
76	COC(=O)c1ccc(/C=N/NC(=O)C2CC(=O)N(c3ccc(F)cc3)C2)cc1 (stereo not given)	-0.51	i
77	O=[N+]([O-])c1cccc(-c2ccn[nH]2)c1	1.3	i
78	COc1cc(NC(=O)CCc2nnc3ccc(N4CCCCC4)nn23)cc(OC)c1OC	2.4	i
79	CCCCn1c(-c2cccnc2)nc2cc3[nH]c(=O)c(C(C)C)nc3cc21	-1.6	i
80	Cc1[nH]c2ccccc2c1C(c1ccccn1)N1CCC(C(N)=O)CC1 (stereo not given)	1.2	i

Laid out differently: results already given
78) COc1cc(NC(=O)CCc2nnc3ccc(N4CCCCC4)nn23)cc(OC)c1OC
  KCNQ2 inh baseline: 2.4
  KCNQ2 inh: i
80) Cc1[nH]c2ccccc2c1C(c1ccccn1)N1CCC(C(N)=O)CC1 (stereo not given)
  KCNQ2 inh baseline: 1.2
  KCNQ2 inh: i

Remaining list, next part:
item	mol	KCNQ2 inh baseline	KCNQ2 inh
81	C=CCc1c(C)nc(C)nc1N/N=C/c1ccc(F)cc1	0.89	i
82	Nc1c(Cl)c(Cl)nc(C(=O)OCC(=O)N2CCCC2=O)c1Cl	1.3	i
83	Cc1cc(Cl)ccc1OCC(=O)NC(=S)Nc1ccc(Cl)cn1	-0.14	i
84	O=C(COc1ccccc1)NC1CCCc2ccccc21 (stereo not given)	0.25	i
85	COc1ccc(C(=S)N2CCCCCC2)cc1	0.27	i
86	CCCCn1c(N)c(N(CCOC)C(=O)CSc2ccccc2C)c(=O)[nH]c1=O	-0.03	i
87	COc1ccc(N=CC2=C(O)c3ccccc3C2=O)c(OC)c1	-0.59	i
88	COc1ccccc1NC(=O)CCN1C(=O)C2CC=CCC2C1=O (stereo not given)	-1.4	i
89	COC(=O)Cc1[nH]nc2c1C(c1cc(OC)c(OC)c(OC)c1)C(C#N)=C(N)O2 (stereo not given)	1.1	i
90	N#Cc1c2c(c(NCc3ccco3)n3c1nc1ccccc13)CCC2	-1.1	i

As entered above:
Reading of cpd 88 under KCNQ2 inh baseline: -1.4
Reading of cpd 84 under KCNQ2 inh baseline: 0.25
Reading of cpd 85 under KCNQ2 inh baseline: 0.27
Reading of cpd 90 under KCNQ2 inh baseline: -1.1
Reading of cpd 82 under KCNQ2 inh baseline: 1.3
Reading of cpd 87 under KCNQ2 inh baseline: -0.59

Next section.
item	mol	KCNQ2 inh baseline	KCNQ2 inh
91	Cc1ccc(OCC(=O)Nc2ccc(N3CCN(C(=O)c4ccco4)CC3)cc2)cc1C	-0.51	i
92	Cc1ccc(S(=O)(=O)N(C)CC(=O)Nc2cccc3c2CCCC3)cc1	-1.1	i
93	C/C(=N\NC(=O)c1ccccc1)C1C2C=CC(C2)C1(C)C (stereo not given)	-0.5	i
94	O=C(Cn1nc(-c2ccc(Cl)cc2)ccc1=O)N1CCN(c2ccccc2)CC1	0.56	i
95	CCN(CC)C(=O)c1ccc2c3c(cccc13)C(=O)N(CCc1ccc(OC)c(OC)c1)C2=O	0.85	i
96	Cc1cc(NC(=O)C(C)SCC(=O)Nc2cc(C(F)(F)F)ccc2N2CCCCC2)no1 (stereo not given)	-0.84	i
97	Cc1cccc(CS(=O)(=O)Cc2ccc(C(=O)NC3CCCCC3)o2)c1	-0.14	i
98	Cc1cc(=O)[nH]c(SCCOc2ccc3c(c2)CCC3)n1	0.62	i
99	CCCOc1ccccc1OCC(=O)Nc1cc(Cl)ccc1-n1cncn1	0.55	i
100	COc1cccc(OC)c1/C=C/C(=O)NC1CCCCC1	3.9	i
101	CCOC(=O)C1=C(N)Oc2ccc3ccccc3c2C1c1cccc(O)c1 (stereo not given)	-0.02	i
102	Cc1ccc(-c2nc(NCCN3CCOCC3)c3ccccc3n2)cc1	-0.23	i
103	Cc1cc(C(F)(F)F)n(-c2nc(C(=O)N/N=C/c3ccc(F)cc3)cs2)n1	-0.53	i
104	COc1ccc(S(=O)(=O)N(C)c2ccc(C(N)=O)cc2)cc1	-0.47	i
105	CC1CCN(c2oc(-c3ccco3)nc2S(=O)(=O)c2ccccc2)CC1	-2.1	i
106	CC(=O)Nc1ccc(C(=O)N/N=C/c2ccccc2OC(=O)c2ccc(Cl)cc2)cc1	-0.36	i
107	CCOC(=O)N1CCN(C(=O)CSc2nc3c([nH]c4ccccc43)c(=O)n2C)CC1	0.31	i
108	COc1ccccc1N1CCN(Cc2cnc3ccc(Cl)cn23)CC1	2	i
109	CCCCn1c(N)c(N(CC(C)C)C(=O)c2cccs2)c(=O)[nH]c1=O	-2.1	i
110	CCC(C)Nc1nnnc2c1sc1nc3c(cc12)COC(C)(C)C3 (stereo not given)	-1.6	i
111	COc1ccc(OC(C)C(=O)N(C)Cc2nc(-c3ccccc3)no2)cc1 (stereo not given)	-0.4	i
112	COc1cc(C(=O)N/N=C/c2sccc2C)cc(OC)c1OC	-0.85	i
113	Cc1cccc(NC(=O)CSc2nnnn2-c2ccc3c(c2)OCCO3)n1	0.15	i
114	O=C(CC(=O)Nc1ccccc1C(F)(F)F)Nc1ccccc1C(F)(F)F	-1.9	i

The list is partial; the hit share may differ from the screen's.
